Six1-Eya2 blk – Six1/Eya2 interaction inhibition | AlphaScreen GST-Six1/His-Eya2 binding, biochemical; stronger effect = lower value; control for the full effect not named in the record | activity change, % (test concentration not listed) | actives 0.56% (n = 360,000) | AID 651725; in the data active = activity change below about -65%; inconclusive = about -30% to -65%; inactive = above about -30%; also: % is scaled to controls: 0 for no effect and ±100 for the full control effect; compound concentration not given in the record
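AlphaScreen luminescence read after one hour at 37 °C in darkness. Pin-transferred compounds met GST-Six1 and His-Eya2 protein (5X stock 250 nM/500 nM) plus glutathione donor and Ni-chelate acceptor beads (5X, 50 ug/mL).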
PINK1 modulator – changes PINK1 expression | actives 0.2% (n = 410,000) | Potency, µM (doses to about 76.6 µM), inactives show top-dose activation (PINK1 increase), actives largely listed as activators | PINK1 immunofluorescence, high-content cytometry, 24 h; active = well fitted activation curve with a large enough effect; inconclusive = small, poorly fitted or top-dose-only effect; inactive = flat fitted curve, though single readings scatter; cell line not stated here;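 also: potency is read from the fitted curve at half-maximal effect; % of control where 0% means no effect; nearly all actives have a fitted effect of over 65% in size; a mitochondrial uncoupler was the plate control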
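Measures PINK1 amount and localization on or inside mitochondria by immunofluorescence. Stable cells get compounds at 5 concentrations for 24 hours before fixation and staining; CCCP controls included.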
D2 potentiator – positive allosteric modulators of human D2 dopamine receptor; DiscoveRx D2 beta-arrestin cells, luminescence, 90 min; 100% = 57 uM dopamine signal; potentiation, % (no concentration beside the values); actives 0.23% (n = 360,000); AID 624464; active = potentiation of 50% or more; inconclusive = 30% to 50%; inactive = 30% or less;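 also: compound concentration not given in the record; tested on top of an EC20 dose of dopamine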
Target sequence (P14416 whole entry, looked up): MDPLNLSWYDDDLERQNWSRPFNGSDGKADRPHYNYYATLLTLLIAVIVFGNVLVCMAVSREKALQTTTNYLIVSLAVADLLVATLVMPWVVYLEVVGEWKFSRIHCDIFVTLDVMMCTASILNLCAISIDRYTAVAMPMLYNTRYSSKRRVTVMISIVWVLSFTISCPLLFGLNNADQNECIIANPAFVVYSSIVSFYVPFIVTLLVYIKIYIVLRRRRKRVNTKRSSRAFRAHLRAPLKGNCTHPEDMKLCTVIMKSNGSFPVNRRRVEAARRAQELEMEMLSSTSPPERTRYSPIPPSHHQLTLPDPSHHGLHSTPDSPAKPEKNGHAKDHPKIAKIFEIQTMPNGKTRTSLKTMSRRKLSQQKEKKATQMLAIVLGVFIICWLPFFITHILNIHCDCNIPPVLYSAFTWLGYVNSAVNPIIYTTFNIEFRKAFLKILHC
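PathHunter beta-arrestin assay in DiscoveRx D2 cells. Compounds were added with an EC20 of dopamine (50 nM final) for 90 min at 37 deg C. Luminescence was read 1 h after detection reagent, with 57 uM dopamine as the EC100 control.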
D2 ag – human D2 receptor agonism in beta-arrestin assay; AID 624465; P14416; actives 0.084% (n = 360,000); DiscoveRx PathHunter D2 beta-arrestin, luminescence, 90 min; 100% = 57 uM dopamine signal; activation, % (test concentration not listed); in the data active = activation above about 40%; inconclusive = about 15% to 40%; inactive = below about 15%; also: compound concentration not given in the record; the text of the record calls up to 30% inactive
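DiscoveRx PathHunter D2 beta-arrestin cells (2,100/well) attached overnight, then compound-stimulated 90 min at 37 C in HBSS/10 mM HEPES/0.1% Tween-20 buffer; beta-galactosidase complementation read by luminescence after 1 h at ambient temperature. Dopamine 57 uM final (EC100) as control.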
TRPML1 agonist – agonists of human TRPML1 channel; actives 0.12% (n = 410,000); activation, % (concentration not given with the values); Q9GZU1; TRPML1-expressing cells, Ca2+ dye fluorescence, FDSS; host cell line not named in the record; reference of the full effect not given here; in the data active = activation above about 50%; inconclusive = about 30% to 50%; inactive = below about 30%; also: 0% is about no effect; the text of the record puts the active cut at 80%
Target sequence (Q9GZU1 whole entry, looked up): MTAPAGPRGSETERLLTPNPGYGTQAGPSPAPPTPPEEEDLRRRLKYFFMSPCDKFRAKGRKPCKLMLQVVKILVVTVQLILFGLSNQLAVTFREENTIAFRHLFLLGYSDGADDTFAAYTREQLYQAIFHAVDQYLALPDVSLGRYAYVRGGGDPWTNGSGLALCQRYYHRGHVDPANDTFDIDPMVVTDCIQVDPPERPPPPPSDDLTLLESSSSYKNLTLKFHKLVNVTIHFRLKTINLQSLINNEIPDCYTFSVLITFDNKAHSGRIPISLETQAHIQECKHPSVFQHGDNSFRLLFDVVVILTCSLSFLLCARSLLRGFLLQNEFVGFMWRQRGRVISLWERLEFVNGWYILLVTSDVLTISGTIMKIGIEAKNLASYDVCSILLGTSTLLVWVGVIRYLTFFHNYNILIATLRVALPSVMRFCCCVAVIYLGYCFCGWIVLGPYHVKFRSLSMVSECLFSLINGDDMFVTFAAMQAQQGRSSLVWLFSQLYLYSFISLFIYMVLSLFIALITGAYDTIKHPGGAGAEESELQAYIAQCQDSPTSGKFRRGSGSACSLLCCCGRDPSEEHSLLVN
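Cells: TRPML1-DL, 1X Tet inducer, ~16 h at 37 degrees C/5% CO2. Dye: ABD Ca8 no-wash + quencher, 45-90 min RT. Read: 10 s baseline, compound add, 110 s agonist phase; 54-4 EC80 (4uM final), 110 s antagonist phase.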
TRPML1 blocker – blocks the human TRPML1 channel; AID 624415; Q9GZU1; TRPML1-inducible cells, Ca2+ dye fluorescence, FDSS; stronger effect = lower value; inhibition of EC80 agonist-evoked calcium signal; actives 0.02% (n = 390,000); activity change, negative = inhibition, % (concentration not given with the values); in the data active means activity change below about -50%; inconclusive means about -30% to -50%; inactive means above about -30%;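 also: stimulus is agonist 54-4 at its EC80 concentration; % is scaled to controls: 0 for no effect and ±100 for the full control effect; compound concentration not given in the record; the text of the record puts the active cut at -80%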
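Tet-induced TRPML1-DL cells loaded with Ca8 no-wash calcium dye were read kinetically on FDSS. Compound addition was followed by EC80 agonist 54-4 (4 uM final); inhibition was read over 110 s.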
An asterisk follows results filed as active; ? = inconclusive; · = not tested or not shown; [ ] = remark or other dose.

smiles	Six1-Eya2 blk	D2 ag	D2 potentiator	TRPML1 blocker	TRPML1 agonist	PINK1 modulator
COc1ccc(C(=O)O/N=C(\N)c2ccc(Br)cc2)cc1	6	?	?	-8	-0.2	3.4%
COc1ccc(CNC(=O)[C@@H](NC(=O)C2CCN(C(=O)[C@@H]3CCCN3C(=O)OC(C)(C)C)CC2)C(C)C)cc1	0	-2.0	-11	·	·	0.0%
Cc1ccc(NC(=O)c2ccc(F)c(S(=O)(=O)NCCc3ccccc3)c2)cc1F	·	·	·	-5	3.0	?
O=C(CSc1nccc(=O)[nH]1)Nc1ccc(N2CCOCC2)c(Cl)c1	-4	-0.6	4	13	-0.4	1.8%
Cc1cc(S(=O)(=O)NCc2ccccc2)ccc1OCC(=O)NCc1ccccn1	-22	-3.9	-8	4	-1.6	1.7%
Cc1ccc(N2CCN(/N=C/c3ccccc3[N+](=O)[O-])CC2)cc1	?	-0.9	-4	-10	2.0	5.3%
CC(=O)c1cccc(N(C(=O)CNC(=O)c2cccs2)C(C(=O)NCC2CCCO2)c2ccccc2)c1 (stereo unspecified)	9	3.6	-1	9	0.2	2.1%
COc1ccc(S(=O)(=O)N(C)CC(=O)NCc2ccco2)cc1	3	0.3	-1	-1	0.2	3.3%[38.3 µM]

Two entries from above, field by field:
COc1ccc(C(=O)O/N=C(\N)c2ccc(Br)cc2)cc1
- Six1-Eya2 blk: 6
- D2 ag: ?
- D2 potentiator: ?
- TRPML1 blocker: -8
- TRPML1 agonist: -0.2
- PINK1 modulator: 3.4%
COc1ccc(CNC(=O)[C@@H](NC(=O)C2CCN(C(=O)[C@@H]3CCCN3C(=O)OC(C)(C)C)CC2)C(C)C)cc1
- Six1-Eya2 blk: 0
- D2 ag: -2.0
- D2 potentiator: -11
- TRPML1 blocker: ·
- TRPML1 agonist: ·
- PINK1 modulator: 0.0%

(listing goes on)
smiles	Six1-Eya2 blk	D2 ag	D2 potentiator	TRPML1 blocker	TRPML1 agonist	PINK1 modulator
Cc1ccc(C(C)C)c(OCC(=O)N/N=C/c2ccc(S(=O)(=O)O)o2)c1	-1	-3.9	-11	-16	-0.4	1.7%
COc1ccc(C=O)c(-c2c(-c3ccccc3OC)sc3ccccc23)c1	-9	·	·	·	-0.7	-1.2%
O=C(Cn1c(-c2cscn2)nc2ccccc21)Nc1ccc(Cl)cc1	-1	-0.9	9	-7	-0.4	0.3%
CSCCC(NC(=O)COc1ccccc1)C(=O)NCCOc1ccc(C)cc1 (stereo unspecified)	-1	4.5	25	-1	2.4	3.7%
CCCCn1c(N)c(N(CCOC)C(=O)c2cc(Cl)nc3ccccc23)c(=O)[nH]c1=O	2	-1.3	-6	9	-0.9	1.0%
O=C(CC1C(=O)NCCN1Cc1ccccc1)NC1CCCCC1 (stereo unspecified)	3	-3.6	-18	-4	-0.1	2.5%
O=[N+]([O-])c1cccc(NC(=S)N2CCN(c3ccccn3)CC2)c1	-1	0.3	-15	-9	1.0	4.7%
Cc1cc(C)c(N(C(=O)Cn2nnc3ccccc32)C(C(=O)NC(C)(C)C)c2ccsc2)c(C)c1 (stereo unspecified)	-1	-4.0	-20	-4	2.3	·

Taken from above:
Value of CSCCC(NC(=O)COc1ccccc1)C(=O)NCCOc1ccc(C)cc1 (stereo unspecified) under TRPML1 blocker: -1
Value of O=[N+]([O-])c1cccc(NC(=S)N2CCN(c3ccccn3)CC2)c1 under TRPML1 blocker: -9

Continuation:
smiles	Six1-Eya2 blk	D2 ag	D2 potentiator	TRPML1 blocker	TRPML1 agonist	PINK1 modulator
Cn1c(=O)n(C)c2cc(S(=O)(=O)N3CCCc4ccccc43)ccc21	0	-2.5	-10	7	0.2	17%[38.3 µM]
CCN1CCN(c2nc(Nc3ccccc3)nc(N)c2[N+](=O)[O-])CC1	4	-6.9	-35	27	-0.4	3.4%
CCc1cccc2c(C=C(C#N)C#N)cn(CC(=O)N3CCCCC3)c12	-2	0.0	2	11	0.7	7.1%[38.3 µM]
CCCCC(=O)Nc1ccc(NC(=O)c2ccc(C)c([N+](=O)[O-])c2)cc1OC	1	0.4	1	5	1.2	6.4%
O=C(Nc1ccc2c(c1)OCCO2)C(c1ccnc2ccccc12)N1CCN(c2ccc(F)cc2)CC1 (stereo unspecified)	-27	-2.1	-4	·	0.1	0.8%
Cn1c(N)c(C(=O)CSc2nnc3n2CCCCC3)c(=O)n(C)c1=O	-14	7.5	-9	7	1.5	-0.5%
CS(=O)(=O)N(CC(=O)N1CCN(Cc2ccccc2)CC1)c1ccccc1Br	4	-5.8	-5	-23	0.7	-0.3%
CCCSC1=C(C#N)C(c2cccs2)C(C(=O)Nc2ccccc2)=C(C)N1 (stereo unspecified)	4	1.8	21	7	0.1	1.6%
CC(C)Oc1ccc(C(=O)Nc2ccc(N3CCCC3)cc2)cc1	-19	3.0	-1	-1	0.0	9.3%[38.3 µM]
NC(=O)NN=C1CC2CC1C1C=CCC21 (stereo unspecified)	4	3.9	-13	-3	0.2	0.0%
Cc1cccc(NC(=O)c2ccc3c(=O)n(CC4CCCO4)c(=S)[nH]c3c2)c1 (stereo unspecified)	-1	5.2	14	-4	0.4	6.5%
CCC(Sc1nnc(-c2ccc(OC)cc2)c(-c2ccc(OC)cc2)n1)C(=O)Nc1cccc(OC)c1 (stereo unspecified)	·	·	·	16	3.7	2.1%
CCOc1ccccc1CNC(=O)CCc1c(C)nn(-c2ccc(N3CCCCC3)nn2)c1C	·	·	·	-16	0.5	0.8%
O=C(Nc1ccc(S(=O)(=O)N2CCC(c3nc4ccccc4s3)CC2)cc1)c1ccccc1F	·	·	·	2	0.4	0.2%
COC(=O)[C@]12CCCCC=C1N(Cc1ccccc1)C(=O)[C@H](CC(=O)NCc1cccc(C(F)(F)F)c1)C2	0	·	·	·	0.4	5.3%
COc1ccc(NC(=O)N2CCN(c3nc4ccccc4n3C(C)C)CC2)cc1	11	-1.8	-2	-16	-0.4	2.1%

Brought forward from above: 2 compounds, followed by the next part.
smiles	Six1-Eya2 blk	D2 ag	D2 potentiator	TRPML1 blocker	TRPML1 agonist	PINK1 modulator
COC(=O)[C@]12CCCCC=C1N(Cc1ccccc1)C(=O)[C@H](CC(=O)NCc1cccc(C(F)(F)F)c1)C2	0	·	·	·	0.4	5.3%
COc1ccc(NC(=O)N2CCN(c3nc4ccccc4n3C(C)C)CC2)cc1	11	-1.8	-2	-16	-0.4	2.1%
COc1cc(C(=S)N2CCCC2)ccc1OS(=O)(=O)c1ccc(NC(C)=O)cc1	-2	-3.8	-3	3	1.8	1.3%
COc1cc(CC(=O)Nc2ccc(S(=O)(=O)NC3=NCCCCC3)cc2)cc(OC)c1OC	-22	2.7	-11	-11	0.1	0.6%
CC(NC(=O)Nc1ccccc1)c1ccccc1 (stereo unspecified)	0	-2.4	-11	-8	-0.7	-1.0%
COc1cc(NC(=O)C2=CC(c3ccc(F)cc3)=NS(=O)(=O)N2C)cc(OC)c1OC	·	·	·	-15	0.2	1.1%
C/C(=N\Nc1cccc2cccnc12)c1ccc(C)cc1	-11	1.3	3	-3	-0.7	8.9%
Cc1ccc(Cc2nc3ccccc3nc2SCC(=O)N2CCN(c3ccccc3)CC2)cc1	·	·	·	-10	2.0	0.5%
CC1CCCC(=C\c2ccccc2)/C1=N/O (stereo unspecified)	0	-2.6	-16	12	1.3	8.0%
Cc1ccc(-c2cc(C(=O)NCCc3ccccc3)c3c(-c4ccc(C)cc4)[nH]nc3n2)cc1	·	·	·	-14	0.8	0.5%
COc1ccc(NC(=O)CCc2nnc3ccc(NCc4ccco4)nn23)cc1	-4	-9.2	-9	2	-0.9	0.3%
Oc1c(C(c2ccc(F)cc2)N2CCCC2)sc2nc(-c3ccco3)nn12 (stereo unspecified)	·	·	·	8	2.1	0.1%
CC(C)(C)c1ccc(OCC(=O)OCCNC(=O)c2cccnc2)cc1	4	-4.4	-5	3	-0.8	0.3%
CCN(CC)Cc1c(C(=O)N/N=C/c2cccc3ccccc23)nnn1-c1nonc1N	-5	2.2	-3	4	-0.1	3.9%
O=C(Nc1nccs1)c1nc[nH]c1C(=O)N1CCc2ccccc2C1	?	-7.3	-10	13	-0.1	1.5%
Cc1cc(-c2ccccc2)n2ncc(-c3ccccc3)c2n1	24	-5.0	-20	11	0.3	2.8%
Cc1ccc(CCN2CC(C(=O)NCCCN(C)Cc3ccccc3)CC2=O)cc1 (stereo unspecified)	-2	-3.2	-8	4	-0.1	1.2%
COc1cccc(OCC(=O)NCC2CCCO2)c1 (stereo unspecified)	4	-2.2	-3	-2	-0.1	1.2%
CC(=O)c1ccccc1C(=O)N1CCC(n2nccc2NC(=O)C2CC2)CC1	-1	-5.4	-7	5	1.0	0.6%
CCS(=O)(=O)N1CCC(C(=O)Oc2ccc(Cl)cc2)CC1	?	2.2	-7	1	0.9	3.5%
Cc1cc(C)c(C(=O)COC(=O)c2ccc([N+](=O)[O-])o2)cc1C	-1	?	21	-5	-0.6	2.6%
CNC(=O)C1CC(=O)N(c2ccc(OCC(=O)Nc3ccccc3)cc2)C1 (stereo unspecified)	-20	-3.1	-11	6	0.0	-1.4%
O=C(COc1ccccc1)Nc1ccccc1N1CCCCC1	20	-4.9	-10	3	1.2	1.8%
O=C(Nc1ccc2ccccc2c1)N1CCCN(CCOc2ccccc2)CC1	0	2.6	-6	-1	1.0	1.3%
N#Cc1c(-c2ccc(Cl)cc2)ccn2nc(CCC(=O)O)nc12	-2	-3.6	-6	-8	-0.4	-0.4%
Cn1c(=O)n(C)c2cc(S(=O)(=O)N3CCOCC3)ccc21	0	-1.0	-11	18	-0.3	2.1%[38.3 µM]
COC(=O)c1ccc(/C=C/C(=O)c2ccc(OC)cc2)cc1	5	-2.1	-9	-6	1.4	-4.3%[38.3 µM]
Clc1ccc(-c2csc(N3CCSCC3)n2)cc1	-2	-1.3	1	-2	2.4	1.9%
O=C(c1cccs1)N1CCN(C(=O)C2CCCO2)CC1 (stereo unspecified)	-1	-0.9	-1	13	0.0	7.1%[38.3 µM]
CCOc1ccc(NC(=O)CCCc2nnc3n(C)c(=O)c4sccc4n23)cc1	·	·	·	-4	-0.6	-0.2%
COC/C=C/C1=CC2=CC(=O)C(C)(OC(=O)c3cnc4ccccc4n3)C(=O)C2=CN1CC(C)C (stereo unspecified)	-10	3.5	-32	-15	-0.8	2.3%
CCC(Oc1ccccc1)C(=O)Nc1ccccn1 (stereo unspecified)	-10	-10.0	-7	-24	0.3	-0.8%
COc1cc([N+](=O)[O-])cc(/C=N/NC(=O)Cn2nccc2C)c1O	-88*	-3.5	-9	·	·	-1.0%
CC(=O)Nc1cccc(-c2ccnc3c2CC(C)(C(=O)Nc2cccc(NS(C)(=O)=O)c2)O3)c1 (stereo unspecified)	-5	4.1	-4	·	-0.5	4.1%
Brc1ccc2c(c1)CNc1c(ncnc1N1CCOCC1)O2	-4	1.0	13	-9	1.2	0.7%[38.3 µM]
Cn1c(=NC(=O)CS(=O)(=O)c2ccc(F)cc2)sc2ccccc21	2	-4.5	-10	24	0.0	-0.8%
O=C(NC12CC3CC(CC(C3)C1)C2)c1ccc(-c2ccc(Br)cc2)o1	-1	-8.5	-18	73	3.3	?
O=C(NCc1nnc(SCC(=O)N2CCCCCC2)o1)c1ccc(F)cc1	30	-5.4	3	6	0.8	1.3%
Cc1cccc(OCCn2nnc3sc4c(c3c2=O)CCCC4)c1	·	·	·	5	2.5	0.2%
